High-throughput results: PubChem, National Center for Advancing Translational Sciences (NCATS)
GLA inh pH 4.5: blocks human alpha-galactosidase A at pH 4.5; P06280; purified enzyme, 4-MU-alpha-Gal fluorescence, pH 4.5; activity change, negative = inhibition, % at 105 µM; 230,000 tested, under 10 active; inconclusive = small, poorly fitted or top-dose-only inhibition, or a rising curve; inactive = flat fitted curve, though single readings scatter; no compound was filed as active;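 also: 0% = full activity with enzyme and -100% = basal without enzyme; dose as in the result columns while the protocol names 77 µM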
Target sequence (P06280 whole entry, looked up): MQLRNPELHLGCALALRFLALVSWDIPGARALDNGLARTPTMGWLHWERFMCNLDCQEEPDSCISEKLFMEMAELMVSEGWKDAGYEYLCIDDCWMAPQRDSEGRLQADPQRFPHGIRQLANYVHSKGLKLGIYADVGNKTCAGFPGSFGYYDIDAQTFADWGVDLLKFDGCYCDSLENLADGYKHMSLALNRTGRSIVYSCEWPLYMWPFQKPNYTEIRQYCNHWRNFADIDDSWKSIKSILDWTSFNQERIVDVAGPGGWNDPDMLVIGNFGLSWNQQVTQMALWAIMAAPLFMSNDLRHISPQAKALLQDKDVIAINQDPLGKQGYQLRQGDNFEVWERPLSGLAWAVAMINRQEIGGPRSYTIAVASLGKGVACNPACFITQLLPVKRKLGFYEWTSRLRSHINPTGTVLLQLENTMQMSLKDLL
Rango release inh: prevents RanGTP from dissociating the Rango-importin beta complex. O95149+P62826. Biochemical FRET Rango-importin beta, RanGTP-induced dissociation. Potency, µM (doses to about 46.1 µM), inactives show at the top dose activity change, negative = inhibition. actives 0.071% (n = 340,000); active means falling FRET ratio curve, often poorly fitted, with flat reads before Ran was added; inconclusive means other falling curves, or compound fluorescence or quenching; inactive means flat or rising ratio curve;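 also: potency is read from the fitted curve at half-maximal effect; % of control where 0% means no effect; nearly all actives have a fitted effect of over 45% in size; -100% = wells without RanGTP and RCC1; the record marks most hits as doubtful in a second field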
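Two FRET readings bracket the reaction: one 5 min after compound meets Rango–importin beta, another 45 min after RanGTP-RCC1 (0.6 uM Ran, 0.2 uM RCC1, 2 mM GTP) is added. Only the second defines inhibition.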
miR-21 FLuc: miR-21 reporter, rising signal | HeLa miR-21 FLuc reporter, luciferase, 48 h | Potency, µM (top dose mostly 38.3 µM), for inactives: at the highest dose reporter change, positive = more light | 340,000 tested, under 10 active; active = well fitted rising curve with a large enough effect; inconclusive = small, poorly fitted or top-dose-only effect; inactive = no such curve, though single readings can be large or run the other way;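 also: % of control where 0% means no effect; miR-21 action dims this reporter so a rising signal means less miR-21 action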
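Luminescence from a firefly luciferase reporter carrying a miR-21 binding site downstream, stably expressed under a CMV promoter in HeLa cells that make miR-21 endogenously, reports miRNA modulation after 48 h compound exposure up to approximately 40uM final.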
Rango complex inh: inhibitors of Rango-importin beta complex formation. Potency, µM (titrated, usually from 92.2 µM), inactives show at the top dose inhibition of complex formation. Rango CFP/YFP FRET sensor + importin beta, 45 min. actives 0.031% (n = 340,000); active = rising FRET ratio curve, often small or poorly fitted; inconclusive = mostly compound fluorescence or quenching in the first reads; inactive = flat curves in all reads;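 also: potency is read from the fitted curve at half-maximal effect; 0% = DMSO wells and 100% = buffer wells lacking importin beta; nearly all actives have a fitted effect of over 15% in size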
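FRET biosensor (snurportin 1 IBB flanked by EYFP and cerulean), 50 nM, with compound 5 min, then 0.125 microM importin beta in PBS, 1 mM DTT, 0.02% Tween-20, 0.1% BSA. CFP/YFP ratio read after 45 min at room temperature; pre-read flags interference.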
* marks the source's active call; other numbers are inactive results; & = joins results of further samples.

How did Cc1ccc(N(C(=O)c2csnn2)C(C(=O)NC2CCCCC2)c2cccnc2)c(C)c1 (stereo not given) do in these assays?
Rango release inh: -17%; miR-21 FLuc: -2%; Rango complex inh: 1.8%

How did CCc1nnc(NC(=O)C2CC(=O)N(Cc3ccccc3)C2)s1 (stereo not given) do in these assays?
GLA inh pH 4.5: 7; Rango release inh: -19%; miR-21 FLuc: 6%; Rango complex inh: -4.5%

How did COc1ccc(OC)c(C(=O)c2ccc(C(=O)N3CCCCC3)cc2)c1 do in these assays?
GLA inh pH 4.5: 1; Rango release inh: -3%; miR-21 FLuc: -1%; Rango complex inh: 7.1%

Results for CCCCOc1ccc(-c2nnn(CC(=O)c3c[nH]c4ccccc34)n2)cc1 ?
GLA inh pH 4.5: 4; Rango release inh: 10%; miR-21 FLuc: -2%; Rango complex inh: 2.3%

Results for COc1ccc(-c2noc(CCCC(=O)NCC3CCCO3)n2)cc1 (stereo not given) ?
Rango release inh: 2%; miR-21 FLuc: 21%; Rango complex inh: -1.3%

What do the screens show for `Cc1nn(C(=O)c2nn(C)cc2Cl)c(C)c1Br`?
GLA inh pH 4.5: -8; Rango release inh: -10%; miR-21 FLuc: -4%; Rango complex inh: 5.8%

How did CCc1cccc(NC(=O)C2CC2c2ccccc2)c1 (stereo not given) do in these assays?
Rango release inh: -1%; miR-21 FLuc: -16%; Rango complex inh: -1.6%

What do the screens show for `CCC(C)(C)NC(=O)CN(C(=O)CNS(=O)(=O)c1ccccc1)c1ccccc1`?
GLA inh pH 4.5: -6; Rango release inh: 2%; miR-21 FLuc: -5%; Rango complex inh: 2.2%

How did CC(=O)Nc1ccc(NC(=O)C(C)c2cccc(C(=O)c3ccccc3)c2)cc1 (stereo not given) do in these assays?
GLA inh pH 4.5: -3; Rango release inh: -6%; miR-21 FLuc: 13%; Rango complex inh: 1.6%

How did O=C(NC1CCCCCCC1)c1cnccn1 do in these assays?
GLA inh pH 4.5: 2; Rango release inh: 15%; miR-21 FLuc: -24%; Rango complex inh: 2.0%

How did Cc1ccccc1C(=O)Nc1nnc(CC(=O)N/N=C/c2ccncc2)s1 do in these assays?
GLA inh pH 4.5: -3; Rango release inh: 1%; miR-21 FLuc: -2%; Rango complex inh: 0.7%

How did CCOC(=O)Cc1csc(NC(=S)NC(=O)c2ccccc2)n1 do in these assays?
GLA inh pH 4.5: 1; Rango release inh: 0%; miR-21 FLuc: -13%; Rango complex inh: 0.1%

What do the screens show for `Cc1ccc(C)c(NC(=O)C2CCCN2C(=O)NC2CCCCC2)c1` (stereo not given)?
GLA inh pH 4.5: -3; Rango release inh: -2%; miR-21 FLuc: 2%; Rango complex inh: -0.2%

Results for CC(NC(=O)c1c(O)c2ccccc2n(C)c1=O)c1ccccc1 (stereo not given) ?
Rango release inh: 2%; miR-21 FLuc: -9%; Rango complex inh: -2.8%

Results for Cc1oc(-c2ccc(Cl)cc2)nc1CS(=O)CC(=O)NCCCN(C)C1CCCCC1 (stereo not given) ?
GLA inh pH 4.5: 6; Rango release inh: 1%; miR-21 FLuc: -3%; Rango complex inh: 1.2%

What do the screens show for `CCOC(=O)[C@H]1[C@H]2COc3ccc(C)cc3[C@@H]2N2C(=O)[C@@H](C)NC(=O)[C@@]12C`?
Rango release inh: -7%; Rango complex inh: 2.9%

Results for CC(C)[C@H](NC(=O)[C@@H]1Cc2c([nH]c3ccccc23)C2c3ccccc3C(=O)N21)C(=O)N1CCC[C@@H]1C(=O)O (stereo not given in full) ?
Rango release inh: -22%; miR-21 FLuc: 0%; Rango complex inh: inconclusive

What do the screens show for `CCCn1c2ccccc2c2nnc(SCc3[nH]c(=O)[nH]c3C(=O)CCCCC(=O)OCC)nc21`?
GLA inh pH 4.5: -6; Rango release inh: -9%; miR-21 FLuc: -7%; Rango complex inh: 0.3%

What do the screens show for `O=C(NC1CCN(c2ncccn2)CC1)c1ccccc1F`?
Rango release inh: -4%; miR-21 FLuc: 0%; Rango complex inh: 3.4%

Results for COc1ccc(NC(=O)COC(=O)C23CC4CC(CC(Cl)(C4)C2)C3)c(OC)c1 ?
GLA inh pH 4.5: -14; Rango release inh: 2%; miR-21 FLuc: 6%; Rango complex inh: -4.8%

What do the screens show for `CCOC(=O)c1[nH]c2ccc(OC)cc2c1NC(=O)c1ccc2c(c1)OCO2`?
GLA inh pH 4.5: 6; Rango release inh: 12%; miR-21 FLuc: -5%; Rango complex inh: 5.7%

What do the screens show for `CN(C1=NC(=O)C(CC(=O)Nc2ccc(Br)cc2)S1)c1ccc(O)cc1` (stereo not given)?
GLA inh pH 4.5: -2; Rango release inh: -6%; miR-21 FLuc: 4%; Rango complex inh: -1.0%

Results for Cc1ccc(/C=N/N2C(=O)c3ccccc3NC2c2ccc(C)cc2)cc1 (stereo not given) ?
GLA inh pH 4.5: 11; Rango release inh: -10%; miR-21 FLuc: -53%; Rango complex inh: inconclusive

How did CCC(=O)Nc1ccc(NC(=O)c2ccc3c(c2)OCO3)cc1 do in these assays?
GLA inh pH 4.5: 4; Rango release inh: -4%; miR-21 FLuc: 10%; Rango complex inh: 0.6%

What do the screens show for `CC(C)C[C@H](NC(=O)c1nc[nH]c1C(=O)NC1CCNCC1)C(=O)OCc1ccccc1`?
Rango release inh: 6%; Rango complex inh: -0.2%

How did COc1ccc(CN2CC(=O)N3[C@H]4c5ccccc5OC[C@@H]4[C@H](c4ccccc4)[C@]3(C)C2=O)cc1 do in these assays?
Rango release inh: -13%; Rango complex inh: -3.1%

How did Cc1nn(C)cc1CNC(=O)c1cc2n(n1)C(C(F)(F)F)CC(c1cccs1)N2 (stereo not given) do in these assays?
GLA inh pH 4.5: -1; Rango release inh: -8%; miR-21 FLuc: 8%; Rango complex inh: -3.0%

How did CC(=O)NCc1ccc(C(=O)COC(=O)COc2ccccc2)s1 do in these assays?
Rango release inh: -9%; Rango complex inh: 0.2%

Results for FC(F)(F)c1ccc2c(c1)n(Cc1ccccc1)c1[n+]2CCCCC1 ?
GLA inh pH 4.5: -3; Rango release inh: -8%; miR-21 FLuc: 6%; Rango complex inh: 4.2%

What do the screens show for `Cc1cnc(NC(=O)CN2C(=O)C3CC=CCC3C2=O)s1` (stereo not given)?
GLA inh pH 4.5: 1; Rango release inh: 4%; miR-21 FLuc: 0%; Rango complex inh: 1.6%

A stretch of the results above, for reference:
Results for COc1ccc(NC(=O)COC(=O)C23CC4CC(CC(Cl)(C4)C2)C3)c(OC)c1 ?
GLA inh pH 4.5: -14; Rango release inh: 2%; miR-21 FLuc: 6%; Rango complex inh: -4.8%

What do the screens show for `CCOC(=O)c1[nH]c2ccc(OC)cc2c1NC(=O)c1ccc2c(c1)OCO2`?
GLA inh pH 4.5: 6; Rango release inh: 12%; miR-21 FLuc: -5%; Rango complex inh: 5.7%

Next part
How did Cc1ccc(S(=O)(=O)N(C)Cc2ccc(C(=O)N/N=C3\CCCC(=O)C3)cc2)cc1 do in these assays?
GLA inh pH 4.5: 8; Rango release inh: -4%; miR-21 FLuc: -5%; Rango complex inh: inconclusive

What do the screens show for `CCOC(=O)C1CCN(C(=O)C2CC(=O)N(c3ccc4c(c3)OCCO4)C2)CC1` (stereo not given)?
Rango release inh: 5%; miR-21 FLuc: -6%; Rango complex inh: 3.3%

How did COC(=O)CNc1nc(OC)nc(N(C)C)n1 do in these assays?
GLA inh pH 4.5: 11; Rango release inh: 0%; miR-21 FLuc: -4%; Rango complex inh: 0.4%

What do the screens show for `COc1ccc2c(c1)c(CCN1C(=O)c3ccccc3C1=O)cn2C(=O)c1ccco1`?
GLA inh pH 4.5: 11; Rango release inh: -22%; miR-21 FLuc: 2%; Rango complex inh: 9.5%

Results for O=C(Nc1c(Br)cc2c(c1Br)Cc1ccccc1-2)C(Cl)Cl ?
Rango release inh: -17%; Rango complex inh: -4.4%

How did CC1=C(C(=O)Nc2ccccc2)C(c2ccc(C)o2)N2C(=O)CSC2=N1 (stereo not given) do in these assays?
GLA inh pH 4.5: -7; Rango release inh: inconclusive; miR-21 FLuc: 2%; Rango complex inh: -3.7%

Results for COc1cccc(-c2nn(-c3ccc(C)cc3)cc2C(=O)N2CCN(C3CCS(=O)(=O)C3)CC2)c1 (stereo not given) ?
Rango release inh: 11%; Rango complex inh: 2.7%

Results for Cc1oc(-c2cccs2)nc1CN1CCN(Cc2ccc(F)c(F)c2)C(CCO)C1 (stereo not given) ?
GLA inh pH 4.5: -3; Rango release inh: 3%; miR-21 FLuc: 0%; Rango complex inh: 0.4%

Results for C/C(=N\NC(=O)C1CCCN(S(=O)(=O)c2ccccc2)C1)c1ccccn1 (stereo not given) ?
GLA inh pH 4.5: -1; Rango release inh: 10%; miR-21 FLuc: 10%; Rango complex inh: 0.7%

How did COc1cccc(CN2CCC(C(=O)N3CCC(C)CC3)CC2)c1 do in these assays?
GLA inh pH 4.5: 7; Rango release inh: 26%; miR-21 FLuc: 0%; Rango complex inh: -1.8%

What do the screens show for `OCC(CO)(CO)NCc1ccc(-c2ccccc2)cc1`?
GLA inh pH 4.5: -10; Rango release inh: -8%; miR-21 FLuc: -14%; Rango complex inh: 4.5%

Results for Cc1ccc2nc(Cl)c(/C=N/Nc3ccc(C(=O)O)cc3)cc2c1 ?
GLA inh pH 4.5: -3; Rango release inh: inconclusive; miR-21 FLuc: 15%; Rango complex inh: inconclusive

What do the screens show for `O=C(/C=C/c1ccccc1)N1CCN(c2ccccn2)CC1`?
GLA inh pH 4.5: 10; Rango release inh: -4%; miR-21 FLuc: -32%; Rango complex inh: 3.0%

How did CCn1nccc1C(=O)Nc1ccccc1OC do in these assays?
Rango release inh: -16%; miR-21 FLuc: -5%; Rango complex inh: 2.0%

How did O=C(Nc1cc(Cl)ccc1Cl)c1ccco1 do in these assays?
Rango release inh: -9%; miR-21 FLuc: -5%; Rango complex inh: -2.5%

3 compounds from above, sorted by molar mass, lowest first:
What do the screens show for `OCC(CO)(CO)NCc1ccc(-c2ccccc2)cc1`?
GLA inh pH 4.5: -10; Rango release inh: -8%; miR-21 FLuc: -14%; Rango complex inh: 4.5%

How did COc1cccc(CN2CCC(C(=O)N3CCC(C)CC3)CC2)c1 do in these assays?
GLA inh pH 4.5: 7; Rango release inh: 26%; miR-21 FLuc: 0%; Rango complex inh: -1.8%

Results for C/C(=N\NC(=O)C1CCCN(S(=O)(=O)c2ccccc2)C1)c1ccccn1 (stereo not given) ?
GLA inh pH 4.5: -1; Rango release inh: 10%; miR-21 FLuc: 10%; Rango complex inh: 0.7%

More compounds.
What do the screens show for `COC(=O)[C@]1(C)N[C@H](CN(C)C(C)=O)[C@@H]2C(=O)N(Cc3ccccc3)C(=O)[C@@H]21`?
Rango release inh: -2%; Rango complex inh: -4.5%

Results for COc1cc(-c2nc(=S)[nH][nH]2)cc(OC)c1OC ?
GLA inh pH 4.5: 0; Rango release inh: 0%; miR-21 FLuc: 5%; Rango complex inh: 0.3%

Results for Nc1c(C(=O)NCc2ccc(F)cc2)c2nc3ccccc3nc2n1CCCN1CCOCC1 ?
GLA inh pH 4.5: 7; Rango release inh: inconclusive; miR-21 FLuc: 27%; Rango complex inh: inconclusive

Results for Cc1onc(-c2ccccc2)c1C(=O)N/N=C/c1cc(Br)c(O)c(Br)c1 ?
Rango release inh: -1%; miR-21 FLuc: 2%; Rango complex inh: -0.9%

Results for O=C1OCCN1C(=O)[C@H]1[C@H](c2ccc(F)cc2)C(c2ccc(F)cc2)=NN1c1ccccc1 ?
GLA inh pH 4.5: -10&1; Rango release inh: -10%; miR-21 FLuc: 3%; Rango complex inh: inconclusive

What do the screens show for `S=c1[nH]c2ccc3ccccc3c2[nH]1`?
GLA inh pH 4.5: 4; Rango release inh: -6%; miR-21 FLuc: -42%; Rango complex inh: -4.1%

What do the screens show for `Cc1ccc(NC(=O)c2cccnc2)c([N+](=O)[O-])c1`?
Rango release inh: 2%; miR-21 FLuc: 4%; Rango complex inh: 0.3%

What do the screens show for `COc1ccc(/C=N/N(C)C2=NS(=O)(=O)c3ccccc32)cc1`?
Rango release inh: -26%; miR-21 FLuc: -4%; Rango complex inh: inconclusive

Results for Cc1cc(C(=O)CSc2nncs2)c(C)n1Cc1ccco1 ?
GLA inh pH 4.5: 4; Rango release inh: -2%; miR-21 FLuc: -10%; Rango complex inh: -0.1%

These rows are one share of the data; the hit share may differ from the screen's.
